Screens deposited in PubChem BioAssay by NMMLSC.
FPR binding – small-molecule ligands of human FPR – U937-FPR cells, fMLFK-FITC, flow cytometry, primary screen (AID 362); inhibition, %; U937-FPR cells, fMLFK-FITC displacement, flow cytometry; hits give high values; test concentration not given here; most inactive calls were filed without a number and no value below 0 was filed; actives 1% (n = 4,300);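 active = inhibition of labelled peptide binding to the formyl peptide receptor of at least 65%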;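 note: plate controls were buffer control wells for no effect and unlabeled fMLFF blocking peptide for full effect; higher means less cell fluorescence so more probe displaced; part of the set was picked by virtual screening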
Starred values were filed as active, the others as inactive; i = inactive. These rows are one share of the data; count on the stated rates, not on these rows.

SMILES	FPR binding
C=C1c2cccc(O)c2C(O)=C2C(=O)C3(O)C(O)=C(C(N)=O)C(=O)C(N(C)C)C3C(O)C12 (stereo unspecified)	i
CCOC(=O)C1=C(C)NC2=C(C(=O)C(C(=O)OC)C(C)C2)C1c1cccc(OC)c1 (stereo unspecified)	30
